From PubChem
HIV Env fusion – inhibitors of HIV-1 Env-driven cell-cell fusion, primary screen, HeLa-JRFL effector, CEM21 target cells, luciferase; inhibition, % at 12.3 µM; hit rate 1.1% among 360,000; AID 651610, 2012;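 active = mean replicate inhibition score of at least 50 and every replicate individually at or above 50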;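 note: 0% = plate neutral controls and 100% = maraviroc near 300 nM; one replicate is shown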
UUG fidelity – modulators of yeast start codon fidelity, primary screen, whole organism, S. cerevisiae, single point, plate reader; S. cerevisiae UUG-firefly luciferase reporter, luminescence/redox ratio; activity score, % at 18.7 µM; hit rate 0.13% among 350,000; AID 602363, 2012;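 active = replicate mean at a twofold rise or more, about +100% in these data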;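 note: firefly luciferase made from a UUG start codon reports start codon fidelity; reporter light over untreated wells divided by growth signal over untreated wells; some hits fall short of that in this replicate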
CSC inhib – cancer stem cell viability inhibitors, primary screen, luminescence | hit rate 1.1% among 300,000 | AID 2717, 2010 | cancer stem cell-like cells viability | inhibition, % at 7.5 µM;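 active = mean at 75% or more and at least half the replicates too; tested in HMLE shEcad cells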;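 note: 0% = median of negative and 100% = median of positive control wells; the first replicate is given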
Rce1 inhib – yeast Rce1p protease inhibitors, primary screen, biochemical, fluorescence, cell-free homogeneous. CAAX prenyl protease 2 (Saccharomyces cerevisiae (strain ATCC 204508 / S288c)), Q03530. calls only. hit rate 0.27% among 290,000. yeast membranes, quenched prenylated peptide cleavage fluorescence;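 active = fall in fluorescence gain of 50% or more versus controls, with final raw signal at or below 3038400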;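 note: plate controls were neutral control wells for no effect and wells lacking membranes for full effect; tested at 10 µM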
Target sequence (Q03530 whole entry, looked up): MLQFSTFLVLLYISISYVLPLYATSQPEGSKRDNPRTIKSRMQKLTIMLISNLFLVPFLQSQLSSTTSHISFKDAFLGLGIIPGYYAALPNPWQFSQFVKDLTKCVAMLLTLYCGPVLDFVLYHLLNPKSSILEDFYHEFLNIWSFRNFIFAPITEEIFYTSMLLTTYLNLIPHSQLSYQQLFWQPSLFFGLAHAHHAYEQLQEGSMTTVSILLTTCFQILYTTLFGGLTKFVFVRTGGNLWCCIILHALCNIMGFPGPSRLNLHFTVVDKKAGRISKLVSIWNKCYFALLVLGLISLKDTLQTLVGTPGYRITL
MT1-MMP act inh – blockers of MT1-MMP proenzyme processing, primary screen, HT1080 RFP-PRO-GFP cells, GFP/RFP fluorescence; GFP/RFP ratio fluorescence, overnight; percent of plate control window, DMSO zero; GFP/RFP ratio change, % at 20 µM; hit rate 0.061% among 360,000; AID 651647, 2012;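 active = GFP/RFP ratio change of at least 30% with cell ATP level not reduced by more than half and red fluorescence within 50% of control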; note: strong numbers were not always called active
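Assay system: HT1080 RFP-PRO-GFP cells. Benchmarks: DMSO vehicle wells and RFP-L50D-GFP reporter cell wells. Times: overnight cell settling, then overnight compound exposure, 37 °C, 5% CO2. Compound: 20 µM single dose, 1% DMSO. Read-out basis: GFP/RFP fluorescence ratio.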
eIF4H inh – human eIF4H binding inhibitors, primary screen, translation initiation inhibitor project, biochemical, uHTS, fluorescence polarization; Eukaryotic translation initiation factor 4H (Homo sapiens), Q15056; eIF4H fluorescence polarization binding assay; inhibition, % at 35 µM; hit rate 0.94% among 290,000; AID 2012, 2009;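 active = 50% or more with normal probe brightness, or confirmed in later tests; about a fifth of its hits are not listed in these tables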;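 note: calls also rest on retests at 20 µM and on dose response follow-up; 0% = protein and probe with vehicle and 100% = probe without protein; strong numbers were not always called active; many hits fall short of the cut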
PABP FP inh – PABP poly(A) RNA binding inhibitors, primary screen, biochemical, fluorescence polarization, uHTS; Polyadenylate-binding protein 1 (Homo sapiens), P11940; inhibition, % at 35 µM; hit rate 1% among 290,000;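 active = 50% or more with normal probe brightness, or confirmed in later tests; about a fifth of its hits are not listed in these tables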;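 note: calls also rest on retests at 20 µM and on dose response follow-up; controls were probe without protein and protein plus probe with vehicle; some compounds called inactive have numbers as strong as hits; many hits fall short of the cut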
Target sequence (P11940 whole entry, looked up): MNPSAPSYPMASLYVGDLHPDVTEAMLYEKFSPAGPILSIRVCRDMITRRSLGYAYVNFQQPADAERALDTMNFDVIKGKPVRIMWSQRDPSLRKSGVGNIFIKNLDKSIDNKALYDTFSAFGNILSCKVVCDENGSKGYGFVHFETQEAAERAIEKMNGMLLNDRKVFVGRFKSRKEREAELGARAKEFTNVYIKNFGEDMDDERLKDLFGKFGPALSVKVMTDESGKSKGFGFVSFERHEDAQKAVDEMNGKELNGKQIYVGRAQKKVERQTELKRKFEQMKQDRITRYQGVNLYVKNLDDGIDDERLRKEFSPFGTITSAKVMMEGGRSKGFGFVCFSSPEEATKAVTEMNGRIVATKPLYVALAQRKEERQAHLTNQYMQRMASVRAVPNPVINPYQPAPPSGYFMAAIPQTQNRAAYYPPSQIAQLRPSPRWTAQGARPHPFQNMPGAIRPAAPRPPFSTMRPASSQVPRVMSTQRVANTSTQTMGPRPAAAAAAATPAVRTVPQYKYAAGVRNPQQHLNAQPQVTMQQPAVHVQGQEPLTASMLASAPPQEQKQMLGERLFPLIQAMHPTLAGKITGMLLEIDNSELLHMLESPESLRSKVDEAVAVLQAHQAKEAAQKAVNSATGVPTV
eIF4H inh retest – also measured in eIF4H inh; calls as there; inhibition, %; compound at 20 µM; confirmation average;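 mean of two retest wells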
PABP FP inh retest – recorded beside PABP FP inh, whose call it bears; inhibition, %; compound at 20 µM; confirmation repeats;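 mean of two retest wells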
MT1-MMP act inh RFP – further read-out of MT1-MMP act inh, marked with its call; RFP signal change, %; measured here: RFP expression control read;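 0 = vehicle wells; hits needed this value within 50% of zero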
Starred values were filed as active, the others as inactive; i = inactive; . = no result given.

SMILES	HIV Env fusion	UUG fidelity	CSC inhib	Rce1 inhib	MT1-MMP act inh	MT1-MMP act inh RFP	eIF4H inh	PABP FP inh	others
CCOC(=O)c1[nH]c(C)c(C(=O)NCc2ccc(C)cc2)c1C	14.0	-14.5	.	i	-3.4	-6.1	-2.4	-0.8
Cc1cc(C(=O)Nc2cccc3cccnc23)ccc1[N+](=O)[O-]	-27.1	-13.6	0.6	i	-3.2	-3.5	-0.7	0.9
COc1ccc(OC)c(NC(=O)Cc2nn(C)c(=O)c3ccccc23)c1	.	-10.5	-14.1	i	5.2	-8.1	0.8	-7.2
Cc1ccc2ncnc(Oc3ncccc3NC(=O)C(C)(C)C)c2c1	-4.8	.	-4.5	.	-0.3	6.1	3.4	2.6
S=C(Nc1ccc(Br)cc1)N1CCCC1	.	.	-15.1	i	1.1	3.6	-10.8	4.8
CC(C)(C=O)Cc1cc(C(C)(C)C)c(O)c(C(C)(C)C)c1	3.4	-3.9	7.1	.	-0.2	-1.2	.	.
C=C1C(O)C[C@@H](C(C)C)N(CC(C)C)S1(=O)=O (stereo partly specified)	-21.8	-3.4	.	.	-0.1	2.5	.	.
CCC(C)[C@H](NC(=O)[C@@H]1CSC2c3ccccc3C(=O)N21)C(=O)NCc1ccncc1 (stereo partly specified)	-4.3	-17.5	-13.2	i	0.2	0.1	-2.0	-7.0
CNc1nc(SCc2ccc(C)cc2)nc2c1CCCC2	.	-0.6	11.5	i	-0.5	-9.6	-1.1	-5.4
O=S(=O)(O)C(c1ccccc1)C1(O)CCCCC1 (stereo unspecified)	-26.1	-4.3	.	.	2.0	1.8	.	.
O=C(O)CCCN1C(=O)c2ccc(Oc3cccc([N+](=O)[O-])c3)cc2C1=O	12.5	6.4	-16.4	i	0.6	-4.7	-13.5	-7.3
Cc1ccc(Nc2nnc(C(C)(C)C)c(=O)n2N)cc1	.	.	-1.6	i	-0.9	-2.5	-6.3	12.5
O=C(CN1C(=O)c2ccccc2S1(=O)=O)Nc1ncc(Cl)cc1Cl	.	-13.2	-8.1	.	-10.4	7.3	.	.
CCOC(=O)c1cnc2c(c(C)nn2CC)c1NC1CC1	5.2	-8.9	-3.2	i	-5.3	-2.3	-3.3	3.4
COc1ccc(C(=O)NCCc2nnc3ccc(SCC(=O)Nc4ccccc4F)nn23)cc1	-1.5	-13.6	-16.6	i	-3.4	0.9	-2.6	15.1
Cn1c2ccccc2c2nnc(SCCN3CCOCC3)nc21	-24.8	-11.1	.	i	-6.9	-3.6	3.5	1.0
CCCn1cc(CN2CCN(Cc3ccc(C)o3)C(CCO)C2)c(C)n1 (stereo unspecified)	9.7	.	-9.1	i	2.5	3.0	-1.4	-1.6
CCOC(=O)/C(=C\c1ccc(C)cc1)NC(=O)c1ccccc1	-2.9	.	.	i	-3.0	0.3	77.7*	53.7*	eIF4H inh retest=76.8*;PABP FP inh retest=69.6*
CN(CC1CCCO1)S(=O)(=O)c1ccc(C(=O)Nc2ccc3c(c2)OCO3)cc1 (stereo unspecified)	8.0	.	-6.1	i	0.5	0.1	-0.6	-6.6
CCn1c(=S)[nH]c2cc(S(=O)(=O)N3CCCCC3)ccc21	.	.	1.3	i	16.4	6.0	8.0	0.8
CCOC(=O)c1cnc2c(C(=O)OC)cccc2c1NCCN1CCOCC1	-68.2	-5.0	17.6	i	-2.5	3.5	12.2	12.1
COC(=O)c1ccc(Oc2nc(C)cc(Oc3ccccc3)n2)cc1	.	.	-8.8	i	-4.8	0.4	-2.2	-3.4
CC(C)c1ccc(NC(=O)COC(=O)Cn2cnc3c2c(=O)n(C)c(=O)n3C)cc1	10.7	-21.6	.	.	-0.5	3.0	.	.
O=C(NCCCn1ccnc1)c1cc(-c2ccccc2)on1	-278.6	-17.9	47.9	i	7.2	10.5	-4.2	-13.1
C/C(=N\NC(=O)CNC(=O)c1ccc2c(c1)OCO2)c1ccco1	4.8	-10.7	1.9	i	2.4	7.2	-10.3	-11.4
COC(=O)c1ccc(NS(=O)(=O)c2ccccc2)o1	-1.7	.	-2.6	i	-6.4	-0.6	0.7	-3.3
CCc1ccc(NC(=O)c2cc(-c3ccc(F)cc3)on2)cc1	-11.1	-20.2	1.6	i	-4.7	-2.0	-9.7	-15.7
O=C(CN1C(=O)NC2(CCCCCCC2)C1=O)NCc1ccc(Cl)cc1	.	-1.7	-6.9	.	1.5	-1.5	.	.
Cc1nnc(SCC(=O)c2ccc(C(C)C)cc2)s1	6.3	.	.	i	-2.4	-4.0	-2.9	1.7
CCC(C)N(CCNC(=O)CC1Oc2ccc(C)cc2NC1=O)C1CCCCC1 (stereo unspecified)	16.9	9.6	.	i	0.2	0.0	-1.9	14.8
CCOC(=O)c1[nH]c2ccccc2c1NC(=S)Nc1cccc(C)c1	-17.9	-19.2	5.8	i	-3.5	1.9	7.3	-0.9
Fc1cccc(COc2ccccc2C(=S)N2CCCC2)c1	-9.7	-10.2	9.9	i	-1.8	-3.0	-7.6	-2.6
CSCCn1c(C(C)(C)C)cc(C(=O)O)c1C	6.0	-12.4	-10.9	i	0.0	2.2	-11.1	3.3
Cc1cc2ncc(-c3cccs3)nc2cc1C	-178.3	.	23.1	i	-3.2	-2.6	-8.7	-0.8
CN(C(=O)CCN1CCCO1)C1CCCN(Cc2ccccc2F)C1 (stereo unspecified)	-6.0	-2.2	-9.5	i	-1.3	-1.8	8.5	-4.6
COc1ccc(NC(=O)C(=O)NCC(c2ccco2)N2CCc3ccccc3C2)cc1OC (stereo unspecified)	2.7	-5.3	0.6	i	-0.3	-0.1	.	.
CCCc1cc(=O)[nH]c(SCC(=O)Nc2ccc3c(c2)CCC3)n1	5.6	.	.	i	1.9	-2.3	-4.7	-3.5
CC(=O)Nc1ccc(S(=O)(=O)NCC2CCC(C(=O)N3CCCCC3)CC2)cc1 (stereo unspecified)	14.7	-10.6	8.5	i	-0.3	-2.8	-7.5	-9.6
COc1ccccc1-n1c(O)c(C=NCc2ccccn2)c2ccccc2c1=O	4.7	.	-11.6	i	1.0	2.6	3.5	7.2
Cc1cc(C)cc(N2C(N)=NC(N)=NC2c2ccccc2F)c1 (stereo unspecified)	-24.1	-4.1	3.7	i	-10.3	-7.0	-6.0	-0.8

No new results follow: 6 of the compounds above.
SMILES	HIV Env fusion	UUG fidelity	CSC inhib	Rce1 inhib	MT1-MMP act inh	MT1-MMP act inh RFP	eIF4H inh	PABP FP inh	others
CSCCn1c(C(C)(C)C)cc(C(=O)O)c1C	6.0	-12.4	-10.9	i	0.0	2.2	-11.1	3.3
Cc1cc2ncc(-c3cccs3)nc2cc1C	-178.3	.	23.1	i	-3.2	-2.6	-8.7	-0.8
CN(C(=O)CCN1CCCO1)C1CCCN(Cc2ccccc2F)C1 (stereo unspecified)	-6.0	-2.2	-9.5	i	-1.3	-1.8	8.5	-4.6
COc1ccc(NC(=O)C(=O)NCC(c2ccco2)N2CCc3ccccc3C2)cc1OC (stereo unspecified)	2.7	-5.3	0.6	i	-0.3	-0.1	.	.
CCCc1cc(=O)[nH]c(SCC(=O)Nc2ccc3c(c2)CCC3)n1	5.6	.	.	i	1.9	-2.3	-4.7	-3.5
CC(=O)Nc1ccc(S(=O)(=O)NCC2CCC(C(=O)N3CCCCC3)CC2)cc1 (stereo unspecified)	14.7	-10.6	8.5	i	-0.3	-2.8	-7.5	-9.6

Next section.
SMILES	HIV Env fusion	UUG fidelity	CSC inhib	Rce1 inhib	MT1-MMP act inh	MT1-MMP act inh RFP	eIF4H inh	PABP FP inh	others
CC(C)Sc1nc2ccc(Br)cc2[nH]1	-3.2	.	-14.0	i	-4.5	-1.8	-5.8	-7.2
CCN1CCN(Cc2cccc(Oc3ccc(Cl)cc3)c2)CC1	.	-9.1	54.5	i	-1.1	-4.5	-2.9	10.5
Cc1nccn1CCCNC(=O)c1nc(Cn2cc([N+](=O)[O-])cn2)no1	-7.3	-13.0	44.5	.	1.9	2.3	2.5	-4.0
O=C1Cc2ccccc2C(=O)N1Cc1cccc(Cl)c1	-13.3	-78.2	-3.1	i	1.5	3.3	-0.9	8.3
COc1ccc(C(=O)CSc2nnc(-c3ccco3)n2C)cc1	.	-11.9	6.3	i	2.1	3.6	-0.6	6.8
CCCc1cc2c(OC(=O)CC)c(-c3ccc(C(=O)OCC)o3)c(=O)oc2cc1OC	1.0	.	-0.1	i	3.6	3.7	11.1	-9.8
N#CC12CCCCC1CC1CCCCC1(C#N)N2N (stereo unspecified)	-14.4	.	5.7	i	-2.2	-1.9	9.9	2.8
O=C(c1ccc(CNc2c(N3CCOCC3)c(=O)c2=O)cc1)N1CC=C(c2ccccc2)CC1	-3.0	4.1	-5.7	.	-0.3	1.4	-3.2	9.9
Clc1ccc(CSc2cnnc3ccccc23)cc1Cl	i	-12.6	.	.	0.4	-3.4	.	.
COc1ccc(CCN(C)CCCN2CC(c3ccccc3)CC2=O)cc1OC (stereo unspecified)	-10.3	.	6.2	.	-0.5	2.0	0.3	-6.6
CC(=O)c1cc2c(cc1F)C(C)(C)CCC2(C)C	1.5	-14.8	.	.	-2.3	4.8	.	.
CCCCOCC(O)CN1CCN(C(C)=O)CC1 (stereo unspecified)	.	-12.0	12.7	i	0.7	2.4	-3.4	18.0
COC(=O)CSc1nc(N)nc(C)c1Cl	-24.5	.	-5.7	i	2.5	5.3	-9.0	8.8
Cc1ccc(NC(=O)CCOc2ccccc2)cc1S(=O)(=O)Nc1ccccc1Cl	-10.3	.	15.3	i	0.0	-19.0	-2.7	-3.4
COc1ccc(/C=C/c2noc(-c3ccccc3O)n2)cc1	-37.4	-12.7	24.5	i	-4.9	2.8	-0.8	11.9
COc1cc(C(=O)NC(=S)N(CCC#N)Cc2cccnc2)cc(OC)c1OC	11.5	-12.3	-18.3	.	2.1	2.8	.	.
COc1ccc(C2C(C#N)=C(N)N(c3cccnc3)C3=C2C(=O)CCC3)cc1Cn1cc([N+](=O)[O-])cn1 (stereo unspecified)	-37.4	-5.9	-6.8	i	-12.9	8.6	27.7	12.4
O=C(CCc1nc2ccccc2c(=O)[nH]1)Nc1ccc(N2CCCCC2)cc1	9.0	.	-6.5	i	-2.0	-1.3	1.8	2.0
COC(=O)c1cc(NC(=O)c2c(Cl)cnn2C)cc(C(=O)OC)c1	11.5	-8.3	1.9	i	-1.9	-2.2	-0.2	-6.6
Cc1ccc(-c2nnc(-n3nnc4ccccc43)c3ccccc23)cc1	18.8	-22.1	-13.1	i	-2.9	4.1	0.0	13.7
O=C(CN(Cc1ccco1)Cc1ccco1)Nc1cc(S(=O)(=O)N2CCCCC2)ccc1Cl	32.3	-20.5	.	.	-11.5	-18.0	.	.
COc1cccc(NC(=S)NC2CC(C)(C)NC(C)(C)C2)c1	-6.2	-29.0	7.2	i	-5.4	4.2	-2.5	42.8

Retrieved one by one from the list above (2):
SMILES	HIV Env fusion	UUG fidelity	CSC inhib	Rce1 inhib	MT1-MMP act inh	MT1-MMP act inh RFP	eIF4H inh	PABP FP inh	others
COc1ccc(C(=O)NCCc2nnc3ccc(SCC(=O)Nc4ccccc4F)nn23)cc1	-1.5	-13.6	-16.6	i	-3.4	0.9	-2.6	15.1
COc1ccc(OC)c(NC(=O)Cc2nn(C)c(=O)c3ccccc23)c1	.	-10.5	-14.1	i	5.2	-8.1	0.8	-7.2
